D2 potentiator: potentiates the human D2 dopamine receptor allosterically. potentiation, % (concentration not given with the values). DiscoveRx D2 beta-arrestin cells, luminescence, 90 min; 100% = 57 uM dopamine signal. actives 0.23% (n = 360,000). AID 624464. P14416; active = potentiation of 50% or more; inconclusive = 30% to 50%; inactive = 30% or less;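 also: compound concentration not given in the record; tested on top of an EC20 dose of dopamine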
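PathHunter beta-arrestin assay in DiscoveRx D2 cells. Compounds were added with an EC20 of dopamine (50 nM final) for 90 min at 37 deg C. Luminescence was read 1 h after detection reagent, with 57 uM dopamine as the EC100 control.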
gsp antagonist: antagonizes gsp, the McCune-Albright syndrome mutation | gsp-mutant cells, cAMP HTRF, 30 min; control for the full effect not named in the record | Potency, µM (highest dose often 76.9 µM), without a hit: top-dose activity change, negative = inhibition, hits mostly inhibitors | actives 0.4% (n = 340,000) | AID 624288; active = falling curve of any shape with a large fitted effect; inconclusive = falling curve, mostly with a smaller effect; inactive = flat or rising curve; cell line not stated here;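 also: intracellular cAMP measured with PDE inhibitor Ro 20-1724 present during compound exposure; potency is read from the fitted curve at half-maximal effect; % is scaled to controls: 0 for no effect and ±100 for the full control effect; nearly all actives have a fitted effect of over 65% in size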
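Cells in G418 medium, seeded 16-24 h, 37C; buffer exchange to DPBS + 1 mM CaCl2, 0.5 mM MgCl2, 0.05% BSA; cpds in DMSO + […] (300 uM stock), 30 min 37C; HTRF cAMP detection.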
TRPV1 PAM: human TRPV1 potentiation; actives 0.02% (n = 320,000); TRPV1-expressing cells, Fluo-8 calcium influx, capsaicin EC20 potentiation; host cell line not named in the record; control for the full effect not named in the record; potentiation, % at 8.33 µM; Q8NER1; active means potentiation above 80%; inconclusive means 30% to 80%; inactive means below 30%; also: 0% is about no effect
Target sequence (Q8NER1 whole entry, looked up): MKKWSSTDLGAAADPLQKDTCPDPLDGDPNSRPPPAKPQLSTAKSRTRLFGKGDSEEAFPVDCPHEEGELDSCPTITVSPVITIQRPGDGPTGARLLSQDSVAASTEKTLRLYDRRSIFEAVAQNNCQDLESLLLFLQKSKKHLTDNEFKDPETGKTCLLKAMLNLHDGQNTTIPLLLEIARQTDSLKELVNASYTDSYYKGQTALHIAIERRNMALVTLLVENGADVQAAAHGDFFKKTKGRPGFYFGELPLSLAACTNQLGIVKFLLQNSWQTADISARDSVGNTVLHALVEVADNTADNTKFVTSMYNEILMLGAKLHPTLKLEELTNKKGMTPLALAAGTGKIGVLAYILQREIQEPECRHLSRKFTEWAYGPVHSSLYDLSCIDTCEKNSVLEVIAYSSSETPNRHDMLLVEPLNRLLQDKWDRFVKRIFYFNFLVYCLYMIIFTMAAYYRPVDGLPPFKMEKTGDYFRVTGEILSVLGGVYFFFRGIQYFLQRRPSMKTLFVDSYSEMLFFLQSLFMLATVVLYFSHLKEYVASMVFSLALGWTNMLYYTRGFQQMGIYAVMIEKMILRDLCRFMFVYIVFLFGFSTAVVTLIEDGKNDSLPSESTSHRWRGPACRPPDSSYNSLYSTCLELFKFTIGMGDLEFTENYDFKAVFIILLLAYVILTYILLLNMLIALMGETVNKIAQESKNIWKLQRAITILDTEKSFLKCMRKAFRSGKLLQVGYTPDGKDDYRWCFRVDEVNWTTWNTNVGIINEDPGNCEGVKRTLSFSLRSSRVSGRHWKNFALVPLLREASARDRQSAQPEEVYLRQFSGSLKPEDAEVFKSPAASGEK
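TRPV1-expressing cells were cultured overnight at 35.5C and loaded with Fluo-8 calcium dye for 40 to 90 min at room temperature. After a 10 s baseline, compound was added and calcium influx was read kinetically for 3 min (ex 480/em 520 nm).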
ClpP mod: qHTS Assay for Activators of ClpP; purified B. subtilis ClpP, FRET peptide cleavage, 20 min; Potency, µM (doses to about 57.5 µM), for the others: top-dose activity change, negative = active; actives 1.9% (n = 340,000); active = well fitted falling curve with a large enough effect; inconclusive = small, poorly fitted or top-dose-only effect; inactive = no such curve, though single readings can be large or run the other way; also: potency is read from the fitted curve at half-maximal effect; the source files actives as falling curves though it sought activators and does not explain the sign; nearly all actives have a fitted effect of over 65% in size; many hits overshoot -100%
Target sequence (P80244 whole entry, looked up): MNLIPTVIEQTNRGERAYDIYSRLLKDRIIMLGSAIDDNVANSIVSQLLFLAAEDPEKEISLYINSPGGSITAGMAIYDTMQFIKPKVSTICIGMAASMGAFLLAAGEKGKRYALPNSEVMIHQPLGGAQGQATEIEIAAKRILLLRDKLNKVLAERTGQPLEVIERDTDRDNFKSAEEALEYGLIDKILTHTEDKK
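Purified B. subtilis ClpP, 10 microg/mL final in Tris/HCl pH8 with KCl, BSA, glycerol and Tween-20, cleaved an Abz/nitrotyrosine-quenched decapeptide. Fluorescence (ex 320, em 430) was read at 0 and 20 min at room temperature. Delta was normalized to 5.8 microM ADEP and DMSO/no-enzyme controls.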
Menin-MLL FL inh: inhibitors of human menin-MLL interaction, wild-type MLL peptide | Fluorescence polarization, fluorescein-MLL peptide displacement from menin | FP activity change, % at 61.4 µM | 290,000 tested, under 10 active; inconclusive = falling polarisation curve, or a change in total fluorescence; inactive = total fluorescence flat and polarisation flat or rising; no compound was filed as active; the % refers to the polarisation; negative = inhibition;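 also: % of control where 0% means no effect; inhibitors lower the polarisation; unlabelled MLL peptide was the positive control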
gsp agonist: agonists of gsp mutant (McCune-Albright syndrome) | AID 624287 | gsp mutant cells, cAMP HTRF, 30 min; control for the full effect not named in the record | actives 0.13% (n = 340,000) | Potency, µM (highest dose often 76.9 µM), for the others: at the top dose activation (cAMP increase), hits mostly activators; active = well fitted activation curve with a large enough effect; inconclusive = small, poorly fitted or top-dose-only effect, or another doubt; inactive = no such curve, though single readings can be large or run the other way; cell line not stated here;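 also: phosphodiesterase inhibitor Ro 20-1724 added with compounds to block cAMP breakdown; potency is read from the fitted curve at half-maximal effect; nearly all actives have a fitted effect of over 60% in size; about a fifth of the inactives were tested at one dose only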
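Cells stably selected in G418 were plated at 2000/well, grown 16-24 hr, then given compounds in DMSO with the PDE inhibitor […] (300 uM solution added) for 30 min at 37C; cAMP was read by HTRF.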
Sfp PPTase inh: Sfp phosphopantetheinyl transferase inhibition; Potency, µM, inactives show max response, negative = inhibition, usual class: inhibitors; actives 3.5% (n = 310,000); Q9F4F7; Biochemical Sfp PPTase activity, qHTS; AID 1490; active = well fitted inhibition curve with a large enough effect; inconclusive = small, poorly fitted or top-dose-only effect, or another doubt; inactive = no such curve, though single readings can be large or run the other way;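 also: the enzyme is Sfp with the accession as filed and its product quenches rhodamine fluorescence; potency is read from the fitted curve at half-maximal effect; 0% = enzyme reaction without inhibitor and -100% = no enzyme wells; top concentration of the series not given in the record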
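Reaction rates are the 30-min fluorescence difference (ex 525, em 598 nm) in wells containing 15 nM Sfp, 5 uM rhodamine-CoA and 12.5 uM BHQ-2-YbbR at pH 7.6 with 10 mM MgCl2.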
* marks the source's active call; other numbers are inactive results; u = inconclusive; x = no result given; [ ] = another dose, or the depositor's remark.

Below each compound – ClpP mod	D2 potentiator	Sfp PPTase inh	gsp agonist	Menin-MLL FL inh	gsp antagonist	TRPV1 PAM
CCOc1ccc(/C=C2\SC(=S)N(NS(=O)(=O)c3ccc(C)cc3)C2=O)cc1OC
    x	-1	-22%	14%	4.4	u	u
Cc1ccccc1CSc1nnc(C)c(=O)[nH]1
    0.4%	0	11%	12%	0.6	-5%	-11
COC(=O)C1C(=O)C2=C(CC1C)Nc1ccccc1NC2c1cccs1 (stereo not given)
    x	4	0%	-4%[15.4 µM]	-0.6	6%	-3
Cc1ccnc(NC(=O)Nc2ccc3c(c2)OCO3)c1
    x	-6	2%	-1%[15.4 µM]	-0.3	10%	-19
Cc1cc(N=NC(=O)c2ccccc2O)c2ccccc2c1O
    2.7%	-8	-8%	-32%[inhibitor]	0.3	u	3
CC(C)(C)NC(=O)COC(=O)c1ccc(NC(=O)CC#N)cc1
    x	-7	7%	5%	0.8	1%	-5
CCc1noc(C)c1C(=O)NNC(=O)c1nn(CC)c(=O)c2ccccc12
    -1.0%	25	x	3%	x	-5%	-18
Cc1ccc(C)c(NC(=O)COC(=O)c2nn(C)c(=O)c3ccccc23)c1
    -1.6%	-9	x	5%[15.4 µM]	x	0%	x
c1ccc(-c2cccc(-c3ccccn3)n2)nc1
    -5.4%	u	35%[activator]	3%	-0.4	2%	-1
N#Cc1c(F)cccc1NCc1cccs1
    4.0%	-8	5%	-54%[inhibitor]	-1.4	-5%	-6
C/C(CC(=O)Nc1cc(C)ccn1)=N\NC(=O)c1cccc(F)c1
    x	-3	-1%	35%	2.7	6%	-7
COCC(C)n1c(C)cc(C(=O)CSc2nnnn2-c2ccc(O)cc2)c1C (stereo not given)
    x	5	-18%	1%	4.9	-15%	2
Brc1ccc(CN2CCCCCC2)cc1
    -7.8%	-19	x	23%[15.4 µM]	x	-5%	x
O=C(COC(=O)CCC(=O)c1ccc(F)cc1)NC1CCCCC1
    x	-1	x	-5%	x	-1%	x
O=C(Nc1ccc(F)cc1)C1CCC(N2C(=O)c3ccccc3C2=O)CC1 (stereo not given)
    -0.1%	6	-9%	-12%	1.3	8%	-11
COc1ccccc1C(=O)NCCOc1ccc(C(C)(C)C)cc1
    1.0%	-32	4%	-12%	1.3	u	-5
CCOC(=O)C1=C(C)SC2=NS(=O)(=O)CCN21
    -0.9%	-3	15%	-31%[inhibitor]	-0.8	1%	3
CCc1ccc(NC(=O)N(CCN2CCOCC2)Cc2ccc3c(c2)CCCN3CC)cc1
    -3.5%	-1	u	3%	-14	-14%	19
CCOC(=O)CNC(=O)Cn1cnc2c(nnn2-c2ccccc2)c1=O
    0.7%	-3	11%	u	0.3	8%	-9
CCOc1ccc2[nH]c(SCC(=O)OC)c([N+](=O)[O-])c2c1
    1.1%	-10	0%	13%[15.4 µM]	-22	-9%	-5
OCC1(c2cc(C(F)(F)F)n[nH]2)CCCCC1
    -2.1%	-6	-7%	0%	-0.6	2%	3
O=C(CN1C2=NCCCN2c2ccccc21)c1cccc(Br)c1
    2.3%	-33	-23%	6%	10	-5%	1
CCCN1CCN(C(c2cc3cc4c(cc3[nH]c2=O)OCO4)c2nnnn2C(C)(C)C)CC1 (stereo not given)
    u	-15	-7%	5%	-0.4	-20%	u
Nn1c(SCC(=O)Nc2ccccc2)nnc1-c1cccnc1
    -18%	-11	-11%	9%	-2.8	9%	-9
CC(CN1CCOCC1)OC(=O)c1ccc(Cl)cc1Cl (stereo not given)
    1.9%	-9	-6%	-14%	1.2	5%	-2
CCCOc1ccc(CC(=O)N/N=C\c2ccc(F)cc2)cc1
    -4.7%	-4	20%	-7%[15.4 µM]	0.5	-4%	5
COc1cc2c(cc1OC)-c1cc(Nc3ccccc3C)nc(=O)n1CC2
    x	-7	u	10%[15.4 µM]	0.3	34%[activator]	-15
O=c1cc(N2CCc3ccccc3C2)[nH]c(=O)n1-c1ccc(Br)cc1
    0.0%	-4	10%	-22%	2.4	-5%	4
O=C(C1CCCN(c2nnc(-n3cccc3)s2)C1)N1CCN(c2ccccc2)CC1 (stereo not given)
    -0.3%	-1	-20%	-63%[inhibitor]	4.8	-11%	-7
COc1ccc(C(=O)Nc2c(O)ccc3ccccc23)cc1OC
    1.9%	17	x	8%[15.4 µM]	x	-5%	x
COc1ccccc1S(=O)(=O)N(C)C[C@H]1Oc2ncc(Br)cc2C(=O)N([C@H](C)CO)C[C@H]1C
    1.9%	5	x	-39%[inhibitor]	x	x	x
CC(C)(C)c1ccc(OC(=O)Cn2c(C(F)(F)F)nc3ccccc32)cc1
    u	0	29%	-7%	6.5	-5%	-41
COCC(C)OC(=O)c1c(N)n(CCCN2CCOCC2)c2nc3ccccc3nc12 (stereo not given)
    x	-29	-6%	u	-2.6	u	27
CCOC(=O)C1CCN(Cc2nnc(-c3ccccc3C)o2)CC1
    -3.1%	-14	-21%	u	-0.8	-2%	-16
CCNS(=O)(=O)c1ccc(NC(=S)NCc2ccco2)cc1
    -2.3%	-20	-37%	-30%	13	6%	6
Cc1cc(OCc2cc(C(=O)N(C)CCc3cnn(C)c3)no2)cc(C)c1Cl
    0.3%	-12	-10%	21%	-0.2	-18%	-18
CC(C)COCC(O)CCC(=O)NNC(=S)Nc1ccccc1 (stereo not given)
    5.1%	-18	12%	-48%[inhibitor]	4.5	12%	11
Cc1cc(C)cc(NC(=O)Cn2cc(C=O)c3ccccc32)c1
    0.3%	-8	-3%	-61%[15.4 µM]	-1.0	-14%	-37
COc1cccc(OC)c1C(=O)NC(C)c1ccccc1 (stereo not given)
    -0.6%	-10	4%	13%	-1.2	5%	21
COc1ccc(-c2cn3cc(C(=O)NN)ccc3n2)cc1
    -1.8%	0	16%	-5%[15.4 µM]	0.4	-9%	4
COc1ccc(S(=O)(=O)Nc2noc3ccccc23)cc1OC
    1.9%	-14	16%	-16%	-6.4	u	-3
O=C(O)C1(c2ccccc2)CCN(S(=O)(=O)c2ccc(Cl)cc2)CC1
    -1.4%	-6	12%	16%[15.4 µM]	-2.2	-24%	2
OCCC1CN(Cc2cnc(-c3ccccc3)s2)CCN1C1CCCCC1 (stereo not given)
    x	-7	5%	-13%[15.4 µM]	-7.7	8%	-5
CCN(CC)c1ccc2c(c1)C(=O)N(C)C2=O
    1.4%	7	-4%	u	u	-5%	-7
Cc1cc(C(=O)OCC(=O)Nc2nnc(C(C)C)s2)c2ccccc2n1
    -4.5%	-6	-6%	21%	-0.8	3%	-7
N#CCCN(C(=O)COC(=O)c1ccc2c(=O)n3c(nc2c1)CCC3)c1ccccc1
    x	-3	-40%	-5%[15.4 µM]	-2.5	-11%	-5
Cc1nnsc1-c1nc2ccccc2[nH]1
    25µM*	-8	13%	12%	-1.6	13%	-18
CC(=O)N(c1nc(CCl)cs1)c1c(C)cc(C)cc1C
    x	1	-2%	u	6.2	12%	-1
O=C(NCCc1ccc(Cl)cc1)c1nnc(Cc2ccc(Cl)cc2)o1
    0.0%	-7	-5%	u	2.9	7%	12
O=C(Nc1ccncc1)c1cc(S(=O)(=O)N2CCN(c3ccccc3)CC2)ccc1Cl
    -0.2%	2	x	-12%	x	-8%	-24

Just gsp agonist, ClpP mod and Menin-MLL FL inh, for some of the entries so far:
| mol | gsp agonist | ClpP mod | Menin-MLL FL inh |
| --- | --- | --- | --- |
| CC(=O)N(c1nc(CCl)cs1)c1c(C)cc(C)cc1C | u | x | 6.2 |
| O=C(NCCc1ccc(Cl)cc1)c1nnc(Cc2ccc(Cl)cc2)o1 | u | 0.0% | 2.9 |

(continued)
Below each compound – ClpP mod	D2 potentiator	Sfp PPTase inh	gsp agonist	Menin-MLL FL inh	gsp antagonist	TRPV1 PAM
COc1cc2c(c(OC)c1OC)-c1ccc(N(C)CC(OC)OC)c(=O)cc1[C@@H](NC(C)=O)CC2
    x	-3	13%	-23%	-1.6	4%	-3
Cc1nc2c3ccccc3nc(NNC(=O)CCC(=O)NCCN3CCN(c4ccccc4F)CC3)n2n1
    -24%	-25	-1%	-23%	x	u	12
Cc1nn(CCC(=O)NNC(=S)NCC(C)C)c(C)c1Br
    0.2%	-39	15%	0%	-0.2	2%	13
O=C1CC(NS(=O)(=O)c2cccnc2)CN1c1cccc(F)c1 (stereo not given)
    x	-2	x	7%[15.4 µM]	x	-1%	-1
CCOc1ccc(S(=O)(=O)N(CC)CC(=O)NCc2ccco2)cc1C
    x	-3	7%	-14%[15.4 µM]	-0.9	5%	-6
Cc1ccccc1-n1nc(C)c2cc(C(=O)N3CCN(S(=O)(=O)c4ccc(Cl)cc4)CC3)sc21
    -2.1%	-24	5%	7%	-3.3	-7%	24
Cc1ccc(S(=O)(=O)N(CC(O)CN2CCOCC2)c2cccc([N+](=O)[O-])c2)cc1 (stereo not given)
    0.0%	-29	4%	u	2.3	8%	8
COc1cccc(NC(=O)CSc2nc3ncc(Br)cc3[nH]2)c1
    1.1%	-16	7%	13%	-0.4	-13%	-13
NC(=O)c1cc(NC(=O)c2ccc(NS(=O)(=O)c3cccs3)cc2)cc(C(N)=O)c1
    x	-2	-15%	4%[15.4 µM]	2.6	6%	2
Oc1ccc(-c2[nH]nc(-c3ccccc3)c2-c2nc3ccccc3[nH]2)cc1
    -13%	-1	10%	3%	1.6	-5%	-10

Ordered by value in Sfp PPTase inh (falling): six of the compounds above
canonical_smiles	D2 potentiator	Sfp PPTase inh	gsp agonist	Menin-MLL FL inh
Cc1ccccc1-n1nc(C)c2cc(C(=O)N3CCN(S(=O)(=O)c4ccc(Cl)cc4)CC3)sc21	-24	5%	7%	-3.3
Cc1cc(C)cc(NC(=O)Cn2cc(C=O)c3ccccc32)c1	-8	-3%	-61%[15.4 µM]	-1.0
CCN(CC)c1ccc2c(c1)C(=O)N(C)C2=O	7	-4%	u	u
O=C(NCCc1ccc(Cl)cc1)c1nnc(Cc2ccc(Cl)cc2)o1	-7	-5%	u	2.9
COCC(C)OC(=O)c1c(N)n(CCCN2CCOCC2)c2nc3ccccc3nc12 (stereo not given)	-29	-6%	u	-2.6
CCOc1ccc(/C=C2\SC(=S)N(NS(=O)(=O)c3ccc(C)cc3)C2=O)cc1OC	-1	-22%	14%	4.4
